# AID504770 = growth inhibition of E. coli YBA685, primary screen, V. cholerae RctB inhibitors | E. coli YBA685 rctB-dependent plasmid, OD600 growth, 3 h; hits give low values | z-score (test concentration not listed) | 130,000 tested, 0.27% active;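 active = z-score under -2 on both plates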;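 also: wells of about 30 µL received 100 nL stock; score is relative to mean and SD of the test wells; the first replicate is given; strong numbers were not always called active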
# Ba CapD inh = Bacillus anthracis CapD inhibitors, primary screen, biochemical, fluorescence intensity; CapD gamma-glutamyltranspeptidase (Bacillus anthracis Ames Ancestor); purified CapD enzyme, fluorescence intensity read-out; hits give low values; some hits fall short of the stated cut; z-score (test concentration not listed); 140,000 tested, 0.23% active;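 active = z-score under -4 in either of two replicates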;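 also: stock transfer was 100 nL into about 40 µL; score is relative to mean and spread of the plate; one replicate is shown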
# Numbers without * were called inactive; / = no result given; & = joins results of further samples. An unsorted share of the library. Share with any hit: about 0.39%.
canonical_smiles	AID504770	Ba CapD inh
Cc1ccnc(NS(=O)(=O)c2ccc(NC(=O)c3ccc(S(=O)(=O)N4CCCCC4C)cc3)cc2)n1 (stereo not given)	0	/
CC(=O)Oc1cccc2c1C(=O)C=CC2=O	-6.5*	-0.44
Cc1cccc(NC(=O)Nc2c(O)c3ccccc3oc2=O)c1C	-0.55	1.31
CCCCn1c(C2CC(=O)N(c3ccccc3Cl)C2)nc2ccccc21 (stereo not given)	1.85	0.585
O=C(NC1CCN(C(=O)C2CCC2)CC1)c1ccccc1	-0.15	-0.595
Cc1ccc(-c2csc(Nc3ccc(C(=O)O)cc3)n2)c(C)c1	0.3	14.3
O=C(CCNC(=O)c1ccco1)NC1CCCc2ccccc21 (stereo not given)	0.25	/
CCOC(=O)C1=CN(Cc2ccc(OC)cc2)C=C(C(=O)OCC)C1c1ccc(C(F)(F)F)cc1	/	58.5
CCCNC(=O)C(C)n1c2ccccc2c2cnn(C)c(=O)c21 (stereo not given)	0.45	0.205
COc1ccc(NC(=O)c2ccc(-n3cncn3)c([N+](=O)[O-])c2)cc1Cl	/	-0.605
COCCOC(=O)C1=C(C)OC(N)=C(C(=O)OC(C)C)C12C(=O)Nc1ccccc12 (stereo not given)	/	-0.355
O=C1NC(c2ccccc2)Sc2ccccc21 (stereo not given)	/	0.93

canonical_smiles	AID504770	Ba CapD inh
CCOC(=O)C1CCCN(C(=O)c2ccc(/C=C3\Oc4ccccc4NC3=O)cc2)C1 (stereo not given)	-0.6	0.975
CCOC(=O)N1CCN(S(=O)(=O)c2ccc(C(=O)Nc3nc4c(s3)CC(C)CC4)cc2)CC1 (stereo not given)	/	1.01
NNC(=O)c1ccc([N+](=O)[O-])o1	/	-1.76
Cn1cccc1C(=O)NNC(=O)C1Cc2ccccc2CN1C(=O)OC(C)(C)C (stereo not given)	/	-0.18
O=C(NC(=O)c1ccc(Cl)cc1)Oc1ccccc1	/	-0.325
O=C(O)c1cc(N2C(=O)/C(=C/c3ccc(-c4ccc(Br)cc4)o3)C=C2c2ccccc2)ccc1O	/	1.19
Cc1cccc(C)c1-n1nnnc1C1(N2CCCC2C(=O)O)CCCCC1 (stereo not given)	/	-0.235
Cc1ccc(S(=O)(=O)N2CCc3ccccc3C2)cc1	1.8	0.905
Fc1ccc2[nH]c3nc4ncc(Br)cc4nc3c2c1	/	17.1
O=C(CCn1c(=O)oc2ccccc21)OCc1cc(=O)n2cc(Br)ccc2n1	-0.1	/
O=C(O)CSc1ccc(F)cc1	/	-0.25
O=C(COc1ccc(C2SCCS2)cc1)Nc1ccc(Cl)cc1	-0.05	-0.275

# Of the compounds above, these contain an aryl methoxy group:
canonical_smiles	AID504770	Ba CapD inh
CCOC(=O)C1=CN(Cc2ccc(OC)cc2)C=C(C(=O)OCC)C1c1ccc(C(F)(F)F)cc1	/	58.5
COc1ccc(NC(=O)c2ccc(-n3cncn3)c([N+](=O)[O-])c2)cc1Cl	/	-0.605

# (next part)
canonical_smiles	AID504770	Ba CapD inh
O=C(CSc1nc2ccccc2s1)N=C1NC(=O)CS1	-0.65	0.08
COC(=O)c1ccc2nc(NC(=O)CCOc3ccccc3)sc2c1	0.9	0.365
O=c1c(Cl)c(N2CCNCC2)cnn1-c1ncc(C(F)(F)F)cc1Cl	/	-1
CN1CCCC(OC(=O)C(C)(c2ccccc2)c2ccccc2)C1 (stereo not given)	-0.1	0.7
COC(=O)C1C(c2ccccc2)NC(c2ccccc2)C(C(=O)OC)S1(=O)=O (stereo not given)	-0.35	0.15
CCOC(=O)NCCN1C(=O)C2C3C=CC(C3)C2C1=O (stereo not given)	-0.75	-0.17
O=C(CSc1ncnc2c1nnn2Cc1ccc(F)cc1)N1CCc2ccccc21	-1.05	/
COC(=O)CSc1nnc(-c2ccccc2)n1CC1CCCO1 (stereo not given)	0.1	/
CCCN(CCC)C(=O)c1cc(OC)cc(OC)c1	0.25	-0.315
Cc1cccc(NC(=O)Cn2c(=O)n(Cc3ccco3)c(=O)c3cccnc32)c1	-0.25	0.69
Nc1nc(C(=O)Nc2ccccc2)c(-c2ccccc2)s1	-0.5	0.29
Cc1nc(C)c(-c2cc(C)c3c(C)nc(C)nc3n2)c(N)n1	-0.75	-0.005

canonical_smiles	AID504770	Ba CapD inh
CCOc1ccc(-n2c(SCC(=O)Nc3cc(C)on3)nc3c(c2=O)SCC3)cc1	/	-0.84
Cc1cc(C)nc(N(C(=O)C2CC2)c2cc(Cl)cc(Cl)c2)n1	/	0.05
CCN(CC)C(=O)/C(C#N)=C/c1ccc(-c2ccc(Cl)cc2)o1	1.35	/
CCOC(=O)Cc1csc(SCC(=O)Nc2cc(C(C)(C)C)nn2-c2ccccc2)n1	-0.1	/
CC(C)N=C(Nc1ccnn1C(C)C)c1ccccc1	1.75	/
Brc1ccc(-c2csc(-c3cccnc3)n2)cc1	/	4.66
CC(CBr)(NS(=O)(=O)c1ccccc1)c1ccccc1 (stereo not given)	2.6	-0.49
Cc1cc2cc(CNS(=O)(=O)N(C)C)ccc2[nH]1	-0.55	0.005
CN(C(=O)COC(=O)c1ccc(CO)cc1)c1ccccc1	0.6	/
NNC(=O)Cn1nnc(-c2cccc([N+](=O)[O-])c2)n1	/	-0.02
O=C(Cn1cnc2onc(-c3ccc(Cl)cc3)c2c1=O)NCCC1=CCCCC1	-0.4	0.045
NS(=O)(=O)c1ccc(CCNC(=O)c2c(Cl)nc3sccn23)cc1	-0.05	/

canonical_smiles	AID504770	Ba CapD inh
N#C/C(=C\Nc1ccc(F)cc1)c1nc(-c2cc3cc(Br)ccc3oc2=O)cs1	/	-0.145
O=C(NCc1ccco1)c1ccc2c(=O)n(CCCN3CCCC3=O)c(=S)[nH]c2c1	-0.75	0.51
CSc1ccccc1C(=O)NCc1ccc(S(N)(=O)=O)cc1	-0.45	/
O=C(NC1CCCCC1)c1cc2ccccc2oc1=O	-0.25	/
CC1CCc2c(sc3ncn(CC(=O)N4CCCC4)c(=O)c23)C1 (stereo not given)	-1	-0.05
O=C(c1ccc(F)cc1F)N1CCc2c([nH]c3ccccc23)C1	/	-0.2
COc1ccc2ccccc2c1CN1CCC(NS(=O)(=O)c2ccc(Br)cc2)C1 (stereo not given)	/	0.995
O=C1CN(c2cc(Cl)cc(Cl)c2)C(=O)CN1/N=C/c1cccnc1	3.45	-0.815
COCCN1C(=O)C2C3c4ccccc4C(c4ccccc43)C2C1=O (stereo not given)	-0.1	/
COc1ccc(C2C(C#N)=C(N)Oc3c2c(C)nn3-c2ccc(Br)cc2)cc1 (stereo not given)	/	-0.725
CC1CCN(c2nccn(-c3cccc(Cl)c3)c2=O)CC1	1.35	-0.165
O=C(CCCCCn1c(=S)[nH]c2ccc(Br)cc2c1=O)N1CCN(c2ccccc2)CC1	/	-0.84

canonical_smiles	AID504770	Ba CapD inh
CCN(C(=O)C(Cc1ccccc1)C(=O)N(CC)c1ccccc1)c1ccccc1	/	1.03
COC(=O)C1(O)CC(C)N(C)CC1C (stereo not given)	-0.05	-0.105
CSc1n[nH]c(=O)n1-c1ccc(Cl)cc1	-0.7	0.325
O=C(CCc1nc(-c2cccs2)no1)Nc1cccc(C(=O)NC2CC2)c1	-0.05	/
O=C(O)/C=C/c1ccsc1	-0.45	/
O=C(CSc1ncnc2c1oc1ccccc12)N1CCCCC1	-0.25	-0.05
CCC1CCCCN1C(=O)CSc1ccc(C)cc1 (stereo not given)	-0.45	-0.23
Cn1c(SCc2ccccc2)nnc1C1CCCN1S(=O)(=O)c1ccc2c(c1)OCCO2 (stereo not given)	-1.6	/
Nc1c2c3c(sc2nc(=O)n1Cc1ccco1)CCC3	-0.65	0.41
CCN1CCSc2ccc(C(=O)NCc3ccc4c(c3)OCO4)cc21	-1.05	100
O=C(NCCN1C(=O)C2C3C=CC(C3)C2C1=O)Nc1cccnc1 (stereo not given)	0.7	-0.76
CC1(C)CC(=O)C=C(SCc2ccc(Cl)cc2)S1	-0.25	-0.35

# In another format: four of the compounds above
structure: COC(=O)C1(O)CC(C)N(C)CC1C (stereo not given)
  AID504770: -0.05; Ba CapD inh: -0.105

structure: CSc1n[nH]c(=O)n1-c1ccc(Cl)cc1
  AID504770: -0.7; Ba CapD inh: 0.325

structure: O=C(CCc1nc(-c2cccs2)no1)Nc1cccc(C(=O)NC2CC2)c1
  AID504770: -0.05; Ba CapD inh: /

structure: O=C(O)/C=C/c1ccsc1
  AID504770: -0.45; Ba CapD inh: /

# Further results follow.
canonical_smiles	AID504770	Ba CapD inh
Oc1ccccc1/C=N/[n+]1ccccc1	1.05	0.18
Cc1noc(C)c1COC(=O)c1cc(Cl)cc(Cl)c1	-0.05	/
Cc1noc(/C=C/N(C)C)c1S(=O)(=O)N(C)Cc1ccccc1	0.3	-3.17
O=C(NC(Cc1c[nH]c2ccccc12)C(=O)O)c1ccc(C23CC4CC(CC(C4)C2)C3)cc1 (stereo not given)	/	0.085
c1ccc2c(-c3ccncc3)c[nH]c2c1	-1.25	5.39
Cc1ccc(-c2cnco2)cc1	/	-0.155
Cc1cc2c(NC(=O)COCC(=O)O)cccc2nn1	0.1	-0.885
CCOC(=O)CC(=O)Nc1ccn(C)n1	-0.8	0.12
C=C(C)CC(Nc1ccc(C)cc1)c1ccco1 (stereo not given)	0.3	-0.35
Cc1ccc(/C=C2/SC(=S)N(CCc3ccc(Cl)cc3)C2=O)o1	0	-0.025
COc1ccc(/C=C(\NC(=O)c2ccccc2)C(=O)N2CCOCC2)cc1	0.75	/
C1=C(c2ccccc2)Nc2ncnn2C1c1cccs1 (stereo not given)	-1.1	-0.6

canonical_smiles	AID504770	Ba CapD inh
CN1CCN(C(=S)NCC2CCCO2)CC1 (stereo not given)	-0.8	/
Clc1ccc(C2C=C(c3cccs3)Nc3ncnn32)cc1 (stereo not given)	-0.3	19.5
CC(=O)N1c2ccccc2C(C)=CC1(C)C	1	0.215
CCN1CC(C(=O)O)CC1=O (stereo not given)	-1.5	/
Cc1ccccc1OCC1=NN2C(=N)/C(=C\c3cccn3-c3cccc(Cl)c3)C(=O)N=C2S1	-0.55	1.94
Cc1ccc(CNC(=O)CCS(=O)(=O)c2ccc(Br)s2)cc1	-0.1	1.86
COc1ccc(NC(=O)Cc2c(O)c3ccccc3[nH]c2=O)cc1	-0.05	0.615
Cc1ccc(-c2nnc3c4ccccc4c(C)nn23)cc1S(=O)(=O)N(C)CCO	-0.25	1.37
CCC(=O)c1cn(CC(=O)N2CCCC2)c2ccccc12	-1.05	-0.375
O=C1N(c2ccccc2)c2ccccc2C1(O)C(F)(F)F (stereo not given)	-0.35	/
CCOc1cccc2c1OC(c1ccc(SC)cc1)N1N=C(c3ccc(C)o3)CC21 (stereo not given)	/	-0.665
O=C1CCN=C(Nc2ccc(F)c(Cl)c2)S1	0.1	-0.805

canonical_smiles	AID504770	Ba CapD inh
CCOC(=O)c1[nH]c(COC(=O)c2ccc(Cl)c(S(=O)(=O)N3CCOCC3)c2)c(C(=O)OCC)c1C	0.8	/
c1ccc(-c2n[nH]c(-c3ccccn3)n2)nc1	0.3	0.23
CCC(Sc1nc2c(sc3ccccc32)c(=O)n1CCCOC)C(=O)N1CCOCC1 (stereo not given)	-0.75	2.9
CC(NC(=O)OC1CCCC1)(C(F)(F)F)C(F)(F)F	-0.6	0.24
O=S(=O)(NCCc1c[nH]c2ccccc12)c1ccc(Br)cc1OC(F)(F)F	/	-0.19
CCCOC(=O)c1cc2ccccc2oc1=O	-0.05	-0.05
O=S(=O)(c1cccc(F)c1)N1CCN(c2ccc(F)cc2)CC1	/	-0.025
CCOC(=O)Nc1ccc(C)cn1	-0.05	0.085
O=C(Nc1cc(C(=O)Nc2ccccc2O)cc(C(=O)Nc2ccccc2O)c1)c1ccccc1	0	-0.67
CC(C)NCC(O)c1ccc2ccccc2c1 (stereo not given)	0.05	-0.125&0.26
Cc1cc(C(=O)COC(=O)C2CCN(S(=O)(=O)c3cccs3)CC2)c(C)n1C	-0.25	/
N#Cc1ccc(OCC(=O)N(C2CCCCC2)C2CCS(=O)(=O)C2)cc1 (stereo not given)	1.05	/

canonical_smiles	AID504770	Ba CapD inh
CC1(C)CC(N2COc3ccc4c5c(oc4c3C2)C(=O)c2ccccc2C5=O)CC(C)(C)N1	2.3	/
Cn1nc(-c2ccccc2)[nH]c1=O	-0.7	-0.14
COc1ccc(C)cc1NC(=O)c1cc(S(=O)(=O)N2CCN(c3ccc(C)cc3)C(C)C2)ccc1F (stereo not given)	/	0.25
CCCN1C(=O)c2ccccc2NC1c1ccc(OC)c(COc2cccc(C)c2C)c1 (stereo not given)	/	21.9
O=C(Cn1c(=O)cnc2ccccc21)N1CCN(S(=O)(=O)c2ccccc2)CC1	-0.55	/
Cc1ccc(Cc2c(C)nc3c(C(=O)NC4CCCC4)cnn3c2C)cc1	-0.35	0.415
CNC(=O)c1ccc(Oc2ccc(C(=O)NC)cc2)cc1	-0.15	0.625
COc1ccc(C2CC(c3c(-c4ccccc4)c4cc(Br)ccc4[nH]c3=O)=NN2C(=O)c2ccncc2)cc1 (stereo not given)	/	0.765
Cc1ccccc1-n1nnc2c(=O)oc3ccccc3c21	-2.25	0.3
Cc1cc(OC(=O)CNC(=O)OCc2ccccc2)cc2oc(=O)c3ccccc3c12	1.65	3.77
CN(C)CCNC(=O)c1cc(Cl)cn(Cc2ccc(Cl)cc2)c1=O	/	0.18
O=C(/C=C/c1ccc(Br)o1)OCC(=O)c1c[nH]c2ccccc12	0.1	/

# High-throughput results: PubChem, ICCB-Longwood Screening Facility, Harvard Medical School
